PK Bst: modulators of Bacillus stearothermophilus pyruvate kinase | Potency, µM | 51,000 compounds, 1.2% hits | AID 361 | partly purified Bacillus stearothermophilus pyruvate kinase, luminescence ATP production; ribose 5-phosphate activator present at AC10; in the data active means potency below about 11 µM; inconclusive means mostly about 12 µM to 25 µM; inactive means weaker than that;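 the screen sought inhibitors and activators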;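 further: potency means the concentration at half of the fitted maximal effect; scaled between full activation by ribose 5 phosphate and full inhibition by luteolin; about four in five hits inhibit and the cells do not say which; series up to 57 µM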
YjeE inh: YjeE (TsaE) inhibition, E. coli; purified YjeE, fluorescence polarisation of a bound ADP probe; AID 605; Potency, µM; P0AF67; 71,000 compounds, 0.05% hits; active = well fitted falling curve; inconclusive = weaker or top-dose-only fall, or a rising curve; inactive = flat or poorly fitted curve;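 further: top concentration of the series not given in the record; excess ADP was the control for the full effect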
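Purified YjeE (10 uM) with BODIPY Texas Red-labeled ADP probe (2 uM); compounds pin-transferred, 15 min at room temperature. Binding inhibition read as decreased fluorescence polarization; ADP titration as control.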
* = called active by the depositor. The list is partial; the hit share may differ from the screen's.

What do the screens show for `COc1ccc(-c2nc3cnc(Nc4ccccc4)nc3n(Cc3cccs3)c2=O)cc1`?
YjeE inh: inactive

Results for COC(=O)C1CCN(C(=O)C2CCCCC2)CC1 ?
PK Bst: >57; YjeE inh: inactive

What do the screens show for `CCNc1ncc2nc(-c3cc(F)cc(F)c3)c(=O)n(Cc3cccs3)c2n1`?
YjeE inh: inactive

Results for CCOc1ccc(-n2cc(C(=O)N3CCN(C)CC3)c3cc(OC)c(OC)cc3c2=O)cc1 ?
PK Bst: >57; YjeE inh: inactive

What do the screens show for `CN(C)CCCNC(=O)CC(c1ccc(F)cc1)c1ccco1` (stereo not given)?
PK Bst: >57; YjeE inh: inactive

What do the screens show for `COc1ccc(NS(=O)(=O)c2c(C)[nH]c(=O)[nH]c2=O)c(OC)c1`?
PK Bst: >57; YjeE inh: inactive

Results for Cn1c2ccccc2c2nnc(SCc3ccc4nonc4c3)nc21 ?
PK Bst: >57; YjeE inh: inactive

What do the screens show for `N#Cc1c(N)nc(SCC(=O)NC2CCCCC2)c(C#N)c1-c1ccc(Cl)cc1`?
PK Bst: >57; YjeE inh: inactive

What do the screens show for `CCN1CCN(c2ncnc3c2sc(=S)n3-c2ccccc2)CC1`?
YjeE inh: inactive

What do the screens show for `O=C(NCCN1C(=O)CCC1=O)c1ccncc1`?
PK Bst: >57; YjeE inh: inactive

Results for CC1(C)N=C(N)N=C(N)N1c1cccc(CSc2ccccc2)c1 ?
YjeE inh: inactive

Results for Cn1nnnc1SCC(=O)NC(=O)Cc1ccccc1 ?
PK Bst: >57; YjeE inh: inactive

Results for CCOc1ccc(CCNC(=O)C2CCN(c3nnc(-n4cccc4)s3)CC2)cc1OCC ?
PK Bst: inactive; YjeE inh: inactive

What do the screens show for `O=C(NC1CCCCCCC1)C1CCCN(S(=O)(=O)c2cnc[nH]2)C1` (stereo not given)?
YjeE inh: inactive

What do the screens show for `COc1ccc(NS(=O)(=O)c2ccc3oc(Nc4ccc5c(c4)OCCO5)nc3c2)cc1`?
PK Bst: >11; YjeE inh: inactive

Results for O=C(C1CC(=O)N(C2CCCC2)C1)N1CCN(c2ccc(F)cc2)CC1 (stereo not given) ?
YjeE inh: inactive

How did Cc1ccc(-c2cc(C(F)(F)F)n3ncc(C(=O)NCc4ccco4)c3n2)cc1 do in these assays?
YjeE inh: inactive

Results for COc1ccc(N2CCN(C(=O)CN3C(=O)C4CC=CCC4C3=O)CC2)cc1 (stereo not given) ?
PK Bst: >57; YjeE inh: inactive

How did Cc1cc2c(cc1C)NC1(C(=O)Nc3ccccc31)C1=C(CC(C)(C)CC1=O)N2 (stereo not given) do in these assays?
PK Bst: >57; YjeE inh: inactive

Results for CCOC(=O)c1ccc(COC(=O)CCc2nc3ccccc3[nH]c2=O)o1 ?
PK Bst: >57; YjeE inh: inactive

What do the screens show for `CC(C)(C)NC(=O)c1cccc(NC(=O)c2ccc(NC(=O)c3ccco3)cc2)c1`?
YjeE inh: inactive

What do the screens show for `CCn1ccnc1C(O)c1cccc(OC)c1` (stereo not given)?
YjeE inh: inactive

What do the screens show for `CCC(=O)Nc1c(C#N)c2nc3ccccc3nc2n1C1CCCCC1`?
PK Bst: >26

Results for Cc1ccc(NC(=O)c2cc(N3CCOCC3)nc3ccccc23)cc1 ?
PK Bst: >26

How did Nc1c(C(=O)NC2CC2)c2nc3ccccc3nc2n1-c1ccc2c(c1)OCO2 do in these assays?
PK Bst: >57; YjeE inh: inactive

Results for COC(=O)c1ccccc1N1C(=O)C2C(C1=O)[C@H]1C=C[C@@H]2C1 (stereo not given in full) ?
PK Bst: >57; YjeE inh: inactive

How did COc1cccc(NC(=O)N2CCC(C(=O)Nc3ccc(C)cc3C)CC2)c1 do in these assays?
PK Bst: >57; YjeE inh: inactive

What do the screens show for `COC(=O)C1(CC(C)C)C=C2C(=C(C)C(=O)C2C)CN1` (stereo not given)?
YjeE inh: inactive

How did O=C(Nc1ccc2nc(-c3ccc(Br)o3)[nH]c2c1)c1ccco1 do in these assays?
PK Bst: 10*; YjeE inh: inactive

Results for O=C(CC1(O)C(=O)N(C/C=C/c2ccccc2)c2ccccc21)c1ccccn1 (stereo not given) ?
PK Bst: >57; YjeE inh: inactive

What do the screens show for `COC(=O)CN(c1ccc2c(c1)OCCO2)S(=O)(=O)c1ccccc1`?
PK Bst: >57; YjeE inh: inactive

Results for S=c1[nH]nc(-c2ccccc2)n1Cc1ccccc1 ?
PK Bst: >26

Results for COCCn1c(=O)c(CCc2ccccc2)nc2cnc(N3CCN(C)CC3)nc21 ?
YjeE inh: inactive

How did CSc1nc2ccc(Nc3nc(N4CCOCC4)nc(N4CCOCC4)n3)cc2s1 do in these assays?
YjeE inh: inactive

How did COc1ccc(C(=O)Nc2ccc(-c3cn4ccsc4n3)cc2)cc1S(=O)(=O)N1CCOCC1 do in these assays?
PK Bst: >57; YjeE inh: inactive

Results for O=C(Nc1cccc(F)c1)N1CCCC2(CCN(C(=O)c3ccncc3)CC2)C1 ?
YjeE inh: inactive

What do the screens show for `CCCCCCSc1nsc(NC(C)=O)n1`?
PK Bst: >57; YjeE inh: inactive

How did NC(=O)C1CCN(C(=O)C2CCN(S(=O)(=O)c3ccccc3)CC2)CC1 do in these assays?
YjeE inh: inactive

How did COC(=O)C1=C(C)N(C)C(C)=C(C(=O)OC)C1c1ccccc1C do in these assays?
YjeE inh: inactive

What do the screens show for `Nc1ccc(-n2c(N)c(C(=O)NCc3ccc4c(c3)OCO4)c3nc4ccccc4nc32)cc1`?
PK Bst: >57; YjeE inh: inactive

How did Cc1cccn2c(=O)c(C=Nc3ccccc3)c(NCCO)nc12 do in these assays?
PK Bst: >57; YjeE inh: inactive

What do the screens show for `O=C(CCCCCN1C(=O)CCC1=O)Nc1ncn[nH]1`?
PK Bst: >57; YjeE inh: inactive

What do the screens show for `CCOC(=O)C(CC)n1cnc2c(cnn2-c2ccc(Cl)cc2)c1=O` (stereo not given)?
YjeE inh: inactive

Results for O=C(c1cn(CC(=O)N2CCCC2)c2ccccc12)C1CCCCC1 ?
PK Bst: >57; YjeE inh: inactive

How did CC12CCC(C(=O)NCCN3CCCCC3)(CC1=O)C2(C)C (stereo not given) do in these assays?
PK Bst: >57; YjeE inh: inactive

Results for COc1ccccc1N1CCN(C(=O)CN(c2cc(C)cc(C)c2)S(C)(=O)=O)CC1 ?
PK Bst: >57; YjeE inh: inactive

What do the screens show for `COc1ccc(-n2c(Cc3cccn3C)nnc2SCC(=O)Nc2ccccc2C)cc1`?
YjeE inh: inactive

How did COc1ccc2[nH]c3c(NCCN4CCCCC4)ncnc3c2c1 do in these assays?
YjeE inh: inactive

As a short view, part of the list above:
What do the screens show for `COc1ccc(-n2c(Cc3cccn3C)nnc2SCC(=O)Nc2ccccc2C)cc1`?
YjeE inh: inactive

How did COc1ccc2[nH]c3c(NCCN4CCCCC4)ncnc3c2c1 do in these assays?
YjeE inh: inactive

Carrying on:
What do the screens show for `CC(C)OCCCNc1nc2c([nH]1)c(=O)n(C)c(=O)n2C`?
PK Bst: >57; YjeE inh: inactive

Results for O=C(OCc1nc(-c2ccccc2)oc1COC(=O)c1ccco1)c1ccco1 ?
PK Bst: >57; YjeE inh: inactive

How did CC(=O)CC(C)C do in these assays?
YjeE inh: inactive

What do the screens show for `COc1ccccc1-c1nccc(-n2ccnc2)n1`?
YjeE inh: inactive

How did COc1cc(C2SCCCCCCCCCCSC(c3ccc(O)c(OC)c3)SCCCCCCCCCCS2)ccc1O (stereo not given) do in these assays?
YjeE inh: inactive

How did COc1ccc(CCN2CC34C=CC(O3)C(C(=O)NCc3ccccc3)C4C2=O)cc1OC (stereo not given) do in these assays?
PK Bst: >57; YjeE inh: inactive

Results for CCCCCc1c(O)c2ccccc2[nH]c1=O ?
PK Bst: >57; YjeE inh: inactive

What do the screens show for `CCCn1c(SCC(=O)NCCc2ccc(Cl)cc2Cl)n[nH]c1=O`?
PK Bst: >57; YjeE inh: inactive

Results for CCC1CCC(NC2CCCCNC2=O)CC1 (stereo not given) ?
YjeE inh: inactive

What do the screens show for `Cc1ccc(CNC(=O)c2ccc(CN3CCOCC3)cc2)cc1`?
YjeE inh: inactive

What do the screens show for `Cc1ccc(OCn2c(=O)sc3ccccc32)cc1`?
PK Bst: >57; YjeE inh: inactive

What do the screens show for `NC(=NC1C2CC3CC(C2)CC1C3)Nc1ccc(I)cc1` (stereo not given)?
YjeE inh: inactive

What do the screens show for `N#CCCn1c(=O)cnc2cnc(OCc3ccccc3)nc21`?
YjeE inh: inactive

Results for CCNc1ncc2nc(-c3cccc(C#N)c3)c(=O)n(CCC#N)c2n1 ?
YjeE inh: inactive

Results for CC(C)NC[C@H](O)COc1cccc2ccccc12 ?
YjeE inh: inactive

How did CC1(C)C2CCC(C2)C1(C)NC(=O)CN1CCOCC1 (stereo not given) do in these assays?
PK Bst: >57; YjeE inh: inactive

How did CC(N=C1NS(=O)(=O)c2ccccc21)c1ccccc1 (stereo not given) do in these assays?
YjeE inh: inactive

What do the screens show for `CN1CCN(CCCN2c3ccccc3Sc3ccc(C(F)(F)F)cc32)CC1`?
PK Bst: inactive; YjeE inh: inactive

Results for COc1ccc(CCNC(=O)C2CCN(S(=O)(=O)c3cccc4nsnc34)CC2)cc1OC ?
PK Bst: >57; YjeE inh: inactive

What do the screens show for `CC1(C)N=C(C(=O)c2ccccc2)N(O)C1(C)O` (stereo not given)?
PK Bst: >57; YjeE inh: inactive

How did O=c1cc(C(F)(F)F)nc(-c2ccccc2)[nH]1 do in these assays?
YjeE inh: inactive

How did CCOC(=O)c1ccc(NC(=O)CCc2ccc(CC)o2)cc1 do in these assays?
PK Bst: >57; YjeE inh: inactive

Results for CC(C)c1ccc(NC(=O)CSc2nnc(-c3ccccn3)n2C)cc1 ?
PK Bst: >57; YjeE inh: inactive

Results for Cc1ccc(CN(c2ccc(C(=O)N3CCOCC3)cc2)S(C)(=O)=O)cc1 ?
YjeE inh: inactive

How did COc1cc(NC(=O)c2cnn3c(C)cc(C)nc23)c(OC)cc1Cl do in these assays?
PK Bst: >57; YjeE inh: inactive

How did COc1ccccc1CC(NC(C)=O)C(=O)NC1CCN(c2nnnn2-c2ccccc2)CC1 (stereo not given) do in these assays?
PK Bst: >57; YjeE inh: inactive

What do the screens show for `COc1ccccc1-c1cc(C(=O)NCc2cccs2)no1`?
PK Bst: >57; YjeE inh: inactive

Results for COc1ccccc1S(=O)(=O)Cc1ccc(C(=O)NCCN2CCCC2)o1 ?
PK Bst: >57; YjeE inh: inactive

How did Cc1nn(C(=O)c2cccs2)c(N)c1-c1ccccc1 do in these assays?
YjeE inh: inactive

How did CCOC(=O)c1cnc(SCC(=O)Nc2sc(C)c(C)c2C#N)nc1N do in these assays?
PK Bst: >57; YjeE inh: inactive

What do the screens show for `COCCNC(=O)c1c[nH]c2ccc(OC)cc2c1=O`?
PK Bst: >57; YjeE inh: inactive

How did CCCCN1CCc2c([nH]c3ccccc23)C1=O do in these assays?
YjeE inh: inactive

How did Cn1c(-c2ccc(F)cc2)cnc1NCc1ccccc1 do in these assays?
PK Bst: >57; YjeE inh: inactive

How did C=C(C)C1CC=C(CN2CCC(C(=O)OCC)CC2)CC1 (stereo not given) do in these assays?
YjeE inh: inactive

Results for COc1ccccc1-c1nnc(SC/C(O)=C(\C#N)c2nc3ccccc3[nH]2)n1C1CCCCC1 ?
PK Bst: >57; YjeE inh: inactive

Results for CCOc1cc(N2CCOCC2)c(OCC)cc1NC(=O)CCS(=O)(=O)c1ccc(Cl)cc1 ?
PK Bst: inactive; YjeE inh: inactive

7 compounds drawn at random from the list so far:
What do the screens show for `CCNc1ncc2nc(-c3cc(F)cc(F)c3)c(=O)n(Cc3cccs3)c2n1`?
YjeE inh: inactive

How did Cc1cccn2c(=O)c(C=Nc3ccccc3)c(NCCO)nc12 do in these assays?
PK Bst: >57; YjeE inh: inactive

What do the screens show for `N#CCCn1c(=O)cnc2cnc(OCc3ccccc3)nc21`?
YjeE inh: inactive

Results for CCCCCc1c(O)c2ccccc2[nH]c1=O ?
PK Bst: >57; YjeE inh: inactive

What do the screens show for `CCC(=O)Nc1c(C#N)c2nc3ccccc3nc2n1C1CCCCC1`?
PK Bst: >26

How did Cn1c(-c2ccc(F)cc2)cnc1NCc1ccccc1 do in these assays?
PK Bst: >57; YjeE inh: inactive

How did COc1cccc(NC(=O)N2CCC(C(=O)Nc3ccc(C)cc3C)CC2)c1 do in these assays?
PK Bst: >57; YjeE inh: inactive

Going on with the list.
What do the screens show for `C=CCOC(=O)N1CCN(c2cccc(C(F)(F)F)c2)CC1`?
PK Bst: >57; YjeE inh: inactive

Results for O=C(O)COCC(=O)Nc1ccc2c(c1)CCC2 ?
PK Bst: >57; YjeE inh: inactive

How did CCNc1ccc(S(=O)(=O)C(F)(F)F)cc1NC(=O)C12CCC(CC1)C2 do in these assays?
PK Bst: >57; YjeE inh: inactive

What do the screens show for `Cc1ccccc1OC(C)c1nc(-c2ccccc2)no1` (stereo not given)?
PK Bst: >57; YjeE inh: inactive

What do the screens show for `Cc1ccc2cccc(Oc3cnccn3)c2n1`?
YjeE inh: inactive

How did COC(=O)CC1C(=O)NC2CCCCC2N1C(=O)c1ccccc1 (stereo not given) do in these assays?
PK Bst: >57; YjeE inh: inactive

What do the screens show for `Cc1ccc2cc(CN(Cc3nnnn3C3CCCC3)C3CCCCC3)c(=O)[nH]c2c1C`?
PK Bst: >57; YjeE inh: inactive

What do the screens show for `Fc1ccc(C2=Nn3c(Cc4ccccc4)nnc3SC2)cc1`?
PK Bst: >57; YjeE inh: inactive
